# From PubChem BioAssay
# HNF4A DNA FP = change in binding of human HNF4A to DNA, primary screen, biochemical, fluorescence polarization, FITC-DNA; Hepatocyte nuclear factor 4-alpha (Homo sapiens), P41235; 1 h; activity change, % at 10 µM; actives 0.3% (n = 360,000); AID 1224865, 2016; in the data active = activity change above about 30%, passing the limit was not always enough;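 note: controls were the assay level and a saturating level of protein; the project sought stronger binding though the title names inhibitors; some compounds called inactive have numbers as strong as hits; positive values seem to mean higher polarization but the record does not say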
# Vif A3G = inhibitors of Vif binding to APOBEC3G peptide, primary screen, biochemical, TR-FRET, GST-Vif 1-94, biotin-A3G peptide, dose response retest (AID 1117319); TR-FRET GST-Vif / biotin-A3G peptide binding; higher % means a stronger effect; test concentration not given here; strong numbers were not always called active; Virion infectivity factor (Human immunodeficiency virus type 1 group M subtype B (isolate …; inhibition, %, or IC50 in µM where a hit was titrated; actives 0.57% (n = 260,000);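 active = above the screen mean plus three standard deviations and confirmed in dose response; inconclusive = results disagree or hit not tested in dose response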;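 note: Vif residues 1-94 fused to GST binding biotinylated APOBEC3G peptide 110-148; 0% = full assay without inhibitor and 100% = GST in place of GST-Vif; retest series ran down from 100 µM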
# RanGTP-Imp inh = inhibitors of RanGTP-importin-beta interaction, primary screen, biochemical, FRET, CFP-Ran, YFP-importin-beta, homogeneous. cell-free CFP-Ran/YFP-importin-beta FRET ratio. inhibition, % (test concentration not listed). actives 1.1% (n = 300,000);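 active = most replicates above 15%; inconclusive = exactly half above 15%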;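 note: 0% = DMSO wells and 100% = Ran loaded with GDP instead of GTP; wells of about 40 µL received 100 nL stock; the first replicate is given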
# B2AR ag = beta2AR agonists driving receptor internalization, primary screen, cell-based, FAP fluorogen, flow cytometry; Beta-2 adrenergic receptor (Homo sapiens), P07550; Am2.2-beta2AR cells; reference of the scale not given here; response, % (concentration not given with the values); actives 0.43% (n = 340,000);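 active = response above a set limit, near 3 SD of response in nonfluorescent compounds, cut at about 42% in these data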;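 note: stock transfer was 100 nL into about 11 µL; a reference agonist was the positive control; negative values mostly stem from fluorescent compounds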
# ALR inh = inhibitors of human ALR sulfhydryl oxidase, primary screen, biochemical, H2O2 detection, HRP-luminol luminescence, single point. FAD-linked sulfhydryl oxidase ALR (Homo sapiens), P55789. purified ALR, DTT oxidation. inhibition, % (test concentration not listed). actives 3.8% (n = 290,000). AID 485317, 2010;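 active = mean and each replicate at 75% or more; inconclusive = only one of the two met; inactive = neither met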;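 note: stock transfer was 7.5 nL into about 7.5 µL; 0% = neutral wells and 100% = wells with inactivated enzyme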
# Calb FLC = C. albicans growth inhibition with fluconazole, primary screen, CaCi-2 strain, Alamar Blue fluorescence; actives 0.57% (n = 300,000); C. albicans CaCi-2 (fluconazole-resistant clinical isolate) + fluconazole, 48 h; growth inhibition, % (concentration not given with the values);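 active = most replicates above 75%; inconclusive = exactly half above 75%; inactive = most below 75%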;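 note: all wells also contain fluconazole at 8 µg/ml as a sub-toxic cotreatment; 0% = median of DMSO wells and 100% = median of geldanamycin control wells; wells of about 8 µL received 7.5 nL stock; the first replicate is given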
# LANA-H2A inh = blockers of LANA interaction with H2A/H2B – biochemical, FP readout, HTS, primary screen; actives 0.6% (n = 320,000); inhibition, % (no concentration beside the values); AID 2629, 2010; cell-free LANA-H2A/H2B peptide, fluorescence polarization; in the data active = inhibition mostly above about 10%, no sharp cut-off; inactive = mostly below about 6.7%;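 note: stock transfer was 7.5 nL into about 10 µL; 0% = median of vehicle wells and 100% = median of positive control wells; one replicate is shown; the record names a cut of 25% in any replicate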
# Target sequence (Q9QR71 whole entry, looked up): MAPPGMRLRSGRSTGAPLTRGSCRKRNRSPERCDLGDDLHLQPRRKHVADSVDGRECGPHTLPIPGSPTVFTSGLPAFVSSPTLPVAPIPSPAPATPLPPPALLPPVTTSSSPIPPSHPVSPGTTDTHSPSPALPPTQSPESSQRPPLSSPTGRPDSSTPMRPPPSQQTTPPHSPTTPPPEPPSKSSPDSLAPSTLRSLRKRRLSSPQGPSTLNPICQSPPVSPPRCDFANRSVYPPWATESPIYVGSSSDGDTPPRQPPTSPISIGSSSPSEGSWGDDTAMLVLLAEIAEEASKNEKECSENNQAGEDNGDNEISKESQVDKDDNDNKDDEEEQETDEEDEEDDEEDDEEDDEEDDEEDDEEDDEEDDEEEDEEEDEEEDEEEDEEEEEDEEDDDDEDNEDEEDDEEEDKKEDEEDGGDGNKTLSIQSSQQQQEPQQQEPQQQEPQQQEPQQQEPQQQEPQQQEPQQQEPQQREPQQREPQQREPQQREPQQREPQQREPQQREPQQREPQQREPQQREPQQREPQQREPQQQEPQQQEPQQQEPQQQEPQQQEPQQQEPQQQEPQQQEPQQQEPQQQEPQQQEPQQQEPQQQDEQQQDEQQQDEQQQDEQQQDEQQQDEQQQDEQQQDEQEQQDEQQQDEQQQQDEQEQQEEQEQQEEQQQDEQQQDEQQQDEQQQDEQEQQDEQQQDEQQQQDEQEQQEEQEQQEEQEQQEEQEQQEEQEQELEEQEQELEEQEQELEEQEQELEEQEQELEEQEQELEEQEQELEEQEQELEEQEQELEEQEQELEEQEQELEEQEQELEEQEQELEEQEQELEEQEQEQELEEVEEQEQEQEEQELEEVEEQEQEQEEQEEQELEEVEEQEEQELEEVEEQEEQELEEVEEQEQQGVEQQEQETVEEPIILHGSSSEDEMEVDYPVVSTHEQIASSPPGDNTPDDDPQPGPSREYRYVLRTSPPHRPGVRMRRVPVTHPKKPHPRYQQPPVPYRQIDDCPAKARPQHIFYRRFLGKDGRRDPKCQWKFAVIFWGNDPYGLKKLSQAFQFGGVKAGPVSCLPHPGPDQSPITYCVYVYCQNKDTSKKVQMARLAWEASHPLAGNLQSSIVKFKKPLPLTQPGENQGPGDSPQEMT
# An asterisk follows results filed as active; ? = inconclusive; / = not tested or not shown; & = joins results of further samples.
SMILES,HNF4A DNA FP,Vif A3G,RanGTP-Imp inh,B2AR ag,ALR inh,Calb FLC,LANA-H2A inh
COC(=O)c1ccccc1NC(=O)CNC(=O)c1ccc(OC)c(OC)c1,-26,15%,-1.8,3,-6,-18,2.0
COc1ccc(Br)cc1S(=O)(=O)N(CC(=O)N1CCN(C)CC1)c1ccccc1,1.5,/,/,-26,-2,/,0.1
CCCN1C(=O)C(=O)c2cc(C)ccc21,0.7,/,/,13,-3,/,-1.8
CN(Cc1ccco1)C(=O)C(Cc1ccccc1)NS(=O)(=O)c1ccc2c(c1)CCC(=O)N2 (centres undefined),1.5,4%,0.8,-1,78*,6,1.3
COc1ccc2[nH]cc(C3N4CC5(C)CN3CC(C)(C4)C5=O)c2c1 (centres undefined),-8.8,0%,3.8,-4,14,15,3.3
CCCc1oc(C(=O)O)cc1CN1CCCC1,-4.6,9%,-1.6,-11,-25,-9,0.1
CCC1Nc2ncnc(N3CCCCC3)c2N(Cc2ccc(Br)cc2)C1=O (centres undefined),0.6,/,3.5,3,-10,-2,-2.1
CN(CCc1cn[nH]c1)Cc1nc(Cc2ccccc2)no1,-2.0,4%,-0.5,-8,3,1,1.2
Cc1cc(C(=O)CSc2nn3c(=O)c(C(C)(C)C)nnc3s2)c(C)n1C1CC1,-2.8,28%,0.0,2,32,-4,-2.3
CCc1nnc(NC(=O)c2oc3ccccc3c2COC(C)C)s1,3.6,6%,/,1,1,/,-2.0
CCOC(=O)c1nnn(CC(=O)NC(=O)Nc2ccccc2)c1C(=O)OCC,-1.3,5%,2.4,8,-10,0,-3.0
CCOC(=O)c1c(C)[nH]c(C)c1C(=O)COC(=O)c1nc2nccc(C)n2n1,0.6,2%,-4.4,2,/,6,/
C=CCn1c(SCC(=O)Nc2ccc(S(N)(=O)=O)cc2)nnc1-c1cnccn1,4.4,/,7.1,2,-46,-7,0.3
O=C(CNC(=O)/C(=C\c1ccc(Br)cc1)NC(=O)c1ccccc1)OCc1ccccc1,-3.8,-6%,2.7,0,-2,-5,-0.8
O=C(c1ccc2c3n(nc2c1)-c1ccc(Cl)cc1CO3)N1CCCCC1,3.1,8%,0.7,-11,-3,3,-0.3
CC(O)COc1ccc(/C(=N/O)c2ccccc2)cc1 (centres undefined),0.3,-3%,-3.0,4,-12,0,1.8
O=C1c2cccnc2C(=O)N1Cc1ccc2c(c1)OCO2,-1.9,7%,-3.5,11,-18,10,-9.1
CCSc1nnc(NC(=O)CSc2nnc(-c3c[nH]c4ccccc34)n2C)s1,-2.3,8%,9.3,16,0,-2,6.4
Cn1c(NCc2ccco2)nc2ccccc21,-1.7,8%,4.6,-7,15,-2,-5.2
Cc1ccc(S(=O)(=O)N2CCC(=O)N(C(COCc3ccc(Cl)cc3)C(C)C)CC2)cc1 (centres undefined),-5.4,10%,3.3,-2,3,1,-2.9
COc1ccccc1C(=O)COC(=O)c1cc([N+](=O)[O-])ccc1N1CCOCC1,3.6,4%,?,10,-10,6,2.3
O=C1c2ccccc2CCCC12N=NCC2c1cccc2ccccc12 (centres undefined),4.3,-2%,4.7,4,-1,15,-0.5
Cc1ccc(Nc2nnc(SCC3CCCCO3)s2)cc1 (centres undefined),-0.3,/,1.4,-8,2,12,-2.9
CC(=O)c1ccc(-n2c(=O)[nH]c(=O)c3c(N)c(C(=O)c4ccc(Cl)cc4)sc32)cc1,-2.9,2%,-4.7,5,-5,-4,-4.9
Cc1onc(-c2c(Cl)cccc2Cl)c1C(=O)Nc1ccc(C(N)=O)cc1,2.4,-4%,-1.0,5,0,-26,6.6

# 3 compounds from above, arranged by count of non-hydrogen atoms, largest number first.
SMILES,HNF4A DNA FP,Vif A3G,RanGTP-Imp inh,B2AR ag,ALR inh,Calb FLC,LANA-H2A inh
COc1ccc(Br)cc1S(=O)(=O)N(CC(=O)N1CCN(C)CC1)c1ccccc1,1.5,/,/,-26,-2,/,0.1
CCOC(=O)c1c(C)[nH]c(C)c1C(=O)COC(=O)c1nc2nccc(C)n2n1,0.6,2%,-4.4,2,/,6,/
CC(O)COc1ccc(/C(=N/O)c2ccccc2)cc1 (centres undefined),0.3,-3%,-3.0,4,-12,0,1.8

# Continuation:
SMILES,HNF4A DNA FP,Vif A3G,RanGTP-Imp inh,B2AR ag,ALR inh,Calb FLC,LANA-H2A inh
CCCC(c1nnnn1Cc1ccccc1)N1CCN(c2ccccc2OC)CC1 (centres undefined),-1.9,?,2.1,12,8,-3,-0.7
O=S(Cc1ccc(Cl)cc1)CC(O)COc1ccc(Cl)cc1 (centres undefined),7.0,-7%,-0.4,1,-1,24,4.0
COc1ccc(C(C)=O)cc1COC(=O)c1cc(=O)c2ccccc2o1,1.5,7%,2.8,4,2,2,2.3
CC(C)Sc1cc(N2CCCC2)nc(-c2ccccc2)n1,-1.9,0%,-3.1,-2,11,-1,6.5
CCCC(=O)NC(=S)Nc1ccc(N2CCN(C(=O)c3cccs3)CC2)cc1,3.4,-4%,-5.1,-11,18,1,2.9
O=C(COC(=O)c1ccc(Cl)c(S(=O)(=O)N2CCCCC2)c1)NCCc1ccccc1,-0.3,-1%,/,-2,/,/,/
O=S1(=O)CC/C(=N\Nc2ccccc2)c2ccsc21,1.6,-2%,-4.3,18,100*,-66,0.2
CC(C)NC(=O)c1ccc(-n2c(=S)[nH]c3ccccc3c2=O)cc1,/,-4%,-2.9,/,/,-6,2.6
COc1ccc(C(=O)CSc2nc(SC)ns2)cc1OC,-1.6,-13%,3.7,-10,/,43,0.4
CCCCCCNC(=O)CC(c1ccccc1)c1cc(Br)ccc1O (centres undefined),-3.1,-4%,1.8,0,-3,-1,-1.3
CCC1c2ccccc2C(=O)C1C(N)=O (centres undefined),-0.6,-7%,/,-4,/,/,/
CCn1c2ccccc2c2cc(NC(=O)CSc3nnc(-c4ccc(OC)c(OC)c4)n3N)ccc21,12,17%,-2.7,22,98*,22,3.7
O=C(CCN1C(=O)/C(=C/c2ccccc2Cl)SC1=S)NC1CCCC1,1.2,/,7.4,6,-4,1,-0.1
CCCc1cc(=O)oc2cc(OCC(=O)N(C)C)c(Cl)cc12,-5.4,10%,-0.4,21,-5,0,-0.5
CC(C)c1nnc(NC(=O)c2ccc(S(=O)(=O)N3CCOCC3)cc2)s1,-2.3,?,1.3,4,/,-1,0.5
CC(C)(C)c1cn(-c2ccc(F)cc2)c(=S)[nH]1,-1.0,12%,-3.2,17,46,5,0.1
O=C(OCc1ccccc1)/C(=C/c1cccc(Br)c1)NC(=O)c1ccco1,-2.1,/,/,5,-5,/,0.0
Cc1ccc(C(=O)OCC(=O)NCC2CCCO2)c(C)c1 (centres undefined),-1.3,-3%,-1.3,5,-6,-12,-2.7
COc1cccc2cc(-c3nnc(SCC(=O)Nc4cc(C(F)(F)F)ccc4Cl)n3N)oc12,2.8,-4%,6.8,3,-2,0,0.4
NC(CSC(c1ccccc1)(c1ccccc1)c1ccccc1)C(=O)O (centres undefined),3.8,1%,/,-5,/,/,/
Cc1ccc(N(CC2CO2)S(=O)(=O)c2ccc(C)cc2)cc1 (centres undefined),0.8,5%,11,9,5,-12,-3.4
O=C1OCCC1Sc1nc2ccccc2[nH]1 (centres undefined),-1.5,13%,2.3,9,-2,-2,-7.2
Cc1ccc(NC(=O)C(c2ccccc2)N2CCN(C(=O)c3ccco3)CC2)cc1 (centres undefined),-0.8,/,/,-2,-2,/,2.0
CCOc1ccc(N(CC(=O)NC2CCCCC2)C(=O)CSc2nnc(COc3ccccc3)o2)cc1,-0.3,13%,?,2,-10,4,4.0
Cc1cccc(C)c1NC(=O)COC(=O)c1ccccc1O,1.0,/,?,1,11,6,2.2

# Pulled one by one from the entries so far:
SMILES,HNF4A DNA FP,Vif A3G,RanGTP-Imp inh,B2AR ag,ALR inh,Calb FLC,LANA-H2A inh
CCCC(c1nnnn1Cc1ccccc1)N1CCN(c2ccccc2OC)CC1 (centres undefined),-1.9,?,2.1,12,8,-3,-0.7
CCCCCCNC(=O)CC(c1ccccc1)c1cc(Br)ccc1O (centres undefined),-3.1,-4%,1.8,0,-3,-1,-1.3

# Remaining list, next part:
SMILES,HNF4A DNA FP,Vif A3G,RanGTP-Imp inh,B2AR ag,ALR inh,Calb FLC,LANA-H2A inh
COc1cc2nc(C3CCC3)nc(N3CCN(c4ccccn4)CC3)c2cc1OC,1.0,0%,3.2,-6,-6,?,-1.1
COc1ccc(OC)c(C(c2c(O)nc(SC)[nH]c2=O)c2c(O)nc(SC)[nH]c2=O)c1,3.7,-8%,2.3,3,73,0,-2.5
COc1ccc(C(=O)Nc2ccc3ncccc3c2)cc1,1.6,/,0.6,-1,-2,2,-1.3
O=C(NCc1ccccc1Cl)C1CCN(S(=O)(=O)N2CCCCC2)CC1,1.5,?,0.6,-2,-6,-5,0.5
CCOC(=O)CSC1=C(C#N)C(c2ccco2)C(C(=O)OCc2ccccc2)=C(C)N1 (centres undefined),0.8,6%&1%,-3.5,3,-3,?,-2.9
COc1cc2c(cc1OC)C(=S)NC(C)(C)C2,3.9,19%,-7.1,2,18,-13,-9.6
O=[N+]([O-])c1ccc(NC2CCN(Cc3ccccc3)CC2)c([N+](=O)[O-])c1,-75,-1%,-2.2,1,-1,6,4.1
Cc1cccc(NC(=S)N(C)C)c1C,-4.7,-2%,8.6,-2,-5,-10,1.1
CCOc1ccc(NC(=O)CN(C)C(=O)c2ccc3[nH]c4c(c3c2)CC(C)CC4)cc1OCC (centres undefined),3.0,-1%,2.8,0,0,-1,1.1
CCN(CC)CCNC(=O)C1c2ccccc2C(=O)N(C)C1c1cn(C)c2ccccc12 (centres undefined),0.2,-3%,3.3,3,/,-10,2.6
O=C1NCCCC1C(=O)NCCNC(=O)C(F)(F)F (centres undefined),-0.7,13%,-2.1,2,-4,-9,-2.2
CCCn1nnnc1NC(=O)c1cc(Cl)ccc1Cl,-3.0,/,1.1,1,-3,4,-8.2
COC(=O)/C(=N/Nc1cccc(C)c1)N1CCCc2ccccc21,-2.5,25%,6.3,-4,99*,46,-6.4
N#Cc1cnn(-c2ccccc2)c1NC(=O)CN1CCN(c2ccccc2)CC1,-2.2,4%,2.2,-7,97*,-2,2.3
CNS(=O)(=O)c1cc(Cl)ccc1Sc1ccccc1C(=O)O,-2.9,-4%,0.8,6,-9,4,1.1
COc1ccc(S(=O)(=O)Nc2ccc(C)cc2)cc1OC,3.6,1%,-3.4,3,-6,39,-0.1
CC(C)CN(C(=O)COC(=O)CCC(=O)c1ccc(Cl)cc1)c1c(N)n(Cc2ccccc2)c(=O)[nH]c1=O,2.0,-7%,-1.0,-11,-4,7,4.0
Cc1ccc(-c2csc3ncnc(N4CCN(S(=O)(=O)c5cccs5)CC4)c23)cc1,-0.1,/,/,2,-9,/,4.3
CCC(C)NS(=O)(=O)c1ccc(F)c(C(=O)Nc2c(F)cc(F)cc2Br)c1 (centres undefined),0.7,/,3.7,-3,7,?,-1.4
COc1cc(/C=C2\NC(=S)N(C)C2=O)ccc1OCc1cccc(F)c1,3.7,-6%,-4.1,0,-4,4,0.5

# Entries of single compounds, looked up by structure. Screens in order: HNF4A DNA FP, Vif A3G, RanGTP-Imp inh, B2AR ag, ALR inh, Calb FLC, LANA-H2A inh
# Entry for CC(C)CN(C(=O)COC(=O)CCC(=O)c1ccc(Cl)cc1)c1c(N)n(Cc2ccccc2)c(=O)[nH]c1=O = 2.0, -7%, -1.0, -11, -4, 7, 4.0
# Entry for CCOc1ccc(NC(=O)CN(C)C(=O)c2ccc3[nH]c4c(c3c2)CC(C)CC4)cc1OCC (centres undefined) = 3.0, -1%, 2.8, 0, 0, -1, 1.1
